Screens from PubChem.
AF4-AF9 inh: blocks AF4 peptide binding to human AF9. P42568. AlphaScreen, biotin-AF4 peptide binding to FLAG-AF9. inhibition, % at 10 µM. 350,000 compounds, 0.47% hits. AID 651704;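 active means every replicate reaching a set inhibition limit, whatever the replicate mean, cut at about 25% in these data; inconclusive means mean inhibition reaches that limit but some replicates miss it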;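 further: 0% = plate neutral control median and 100% = total signal loss; the record names both 10 and 1 µM as test concentration; the first replicate is given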
Target sequence (P42568 whole entry, looked up): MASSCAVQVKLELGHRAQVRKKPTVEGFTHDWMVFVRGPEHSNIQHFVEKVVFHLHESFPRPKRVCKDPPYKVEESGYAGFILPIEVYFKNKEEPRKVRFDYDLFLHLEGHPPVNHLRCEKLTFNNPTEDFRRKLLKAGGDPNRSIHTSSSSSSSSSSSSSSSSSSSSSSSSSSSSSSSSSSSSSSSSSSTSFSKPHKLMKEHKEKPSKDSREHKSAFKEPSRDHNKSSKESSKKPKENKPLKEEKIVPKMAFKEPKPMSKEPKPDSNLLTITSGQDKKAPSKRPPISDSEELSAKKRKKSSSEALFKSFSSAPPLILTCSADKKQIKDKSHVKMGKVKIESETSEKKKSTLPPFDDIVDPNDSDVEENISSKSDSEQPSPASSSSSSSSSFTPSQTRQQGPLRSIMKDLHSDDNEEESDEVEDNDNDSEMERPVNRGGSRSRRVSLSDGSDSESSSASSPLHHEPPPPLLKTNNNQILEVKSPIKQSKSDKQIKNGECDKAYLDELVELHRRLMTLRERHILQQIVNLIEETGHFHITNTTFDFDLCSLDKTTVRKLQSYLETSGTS
ALR H2O2 inh: blocks human ALR sulfhydryl oxidase activity | P55789 | purified ALR, DTT oxidation, H2O2 HRP-luminol luminescence | inhibition, % (test concentration not listed) | 290,000 compounds, 3.8% hits;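 active means mean and each replicate at 75% or more; inconclusive means only one of the two met; inactive means neither met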;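 further: stock transfer was 7.5 nL into about 7.5 µL; 0% = neutral wells and 100% = wells with inactivated enzyme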
Target sequence (P55789 whole entry, looked up): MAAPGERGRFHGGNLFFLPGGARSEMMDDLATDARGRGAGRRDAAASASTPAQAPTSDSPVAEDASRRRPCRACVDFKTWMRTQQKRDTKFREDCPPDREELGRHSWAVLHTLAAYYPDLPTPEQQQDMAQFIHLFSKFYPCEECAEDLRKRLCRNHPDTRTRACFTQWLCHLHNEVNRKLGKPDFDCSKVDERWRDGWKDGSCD
Beta cell apopt: blocks beta cell apoptosis; INS-1E cytokine-induced death, ATP luminescence, 48 h; percent of positive-control rescue, neutral wells zero; protection from apoptosis, % (test concentration not listed); 300,000 compounds, 0.8% hits; AID 435005;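 active means all replicates at 75% or more, or half of them and the mean; inconclusive means half reach 75% but not the mean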;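 further: 0% = cytokine-treated negative control wells and 100% = positive control rescue; higher means more ATP so stronger rescue from cytokine killing; wells of about 40 µL received 100 nL stock; the first replicate is given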
T cruzi repl: T. cruzi replication inhibition; 300,000 compounds, 1.4% hits; inhibition, % (no concentration beside the values); AID 1885; T. cruzi beta-gal in NIH3T3, luminescence, 90 h;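 active means mean inhibition across valid replicates above about 55%, limit read from the data; inconclusive means mean below that limit but half or more replicates reach it; inactive means mean below it, under half of replicates reach it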;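 further: signal also drops with host cell toxicity which is not excluded here; 0% = plate median of DMSO wells and 100% = zero luminescence signal; higher percent means less beta-gal luminescence so fewer parasites; stock transfer was 50 nL into about 50 µL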
Calb FLC: C. albicans growth modulation with fluconazole; C. albicans CaCi-2 (fluconazole-resistant clinical isolate) + fluconazole, Alamar Blue growth, 48 h; growth inhibition, % (concentration not given with the values); 300,000 compounds, 0.57% hits; AID 1979;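 active means most replicates above 75%; inconclusive means exactly half above 75%; inactive means most below 75%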;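 further: all wells also contain fluconazole at 8 µg/ml as a sub-toxic cotreatment; 0% = median of DMSO wells and 100% = median of geldanamycin control wells; wells of about 8 µL received 7.5 nL stock; the first replicate is given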
Ecoli rRNA inh: selective bacterial rRNA inhibition in E. coli | E. coli WT GFP vs humanized-ribosome RFP mutants, fluorescence, 24 h; active compounds read low; DMSO median 0, no signal -100 | GFP signal change (wild-type ribosome), % (concentration not given with the values) | 350,000 compounds, 1.6% hits;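 active means significant combined selectivity score with lowered wild-type GFP, culture density cut under 30%, mutant RFP and density less affected; inactive means any of these conditions unmet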; further: one replicate is shown; some compounds called inactive have numbers as strong as hits
RanGTP-Impb inh: disruptors of Ran-importin-beta complex formation – biochemical, FRET, CFP-Ran, YFP-importin-beta, homogeneous, primary screen | 300,000 compounds, 1.1% hits | inhibition, % (concentration not given with the values) | cell-free CFP-Ran/YFP-importin-beta FRET ratio;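 active means most replicates above 15%; inconclusive means exactly half above 15%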;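 further: 0% = DMSO wells and 100% = Ran loaded with GDP instead of GTP; wells of about 40 µL received 100 nL stock; the first replicate is given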
FGF22 binding: shifts melting point of recombinant human FGF22. Q9HCT0. recombinant FGF22 thermal shift, SYPRO orange fluorescence; percent of sucrose octasulfate shift, DMSO zero. calls only at 9.99 µM. 340,000 compounds, 1.5% hits;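 active means melting point raised past a set limit in the mean and every replicate; inconclusive means no clear call; three in four hits are not shown here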
Target sequence (Q9HCT0 whole entry, looked up): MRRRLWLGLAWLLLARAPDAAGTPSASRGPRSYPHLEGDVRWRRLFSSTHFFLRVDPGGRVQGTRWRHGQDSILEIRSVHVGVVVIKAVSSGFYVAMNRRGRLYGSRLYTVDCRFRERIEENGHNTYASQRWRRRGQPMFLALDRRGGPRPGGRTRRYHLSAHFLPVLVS
Ecoli rRNA inh OD600: also measured in Ecoli rRNA inh; calls as there; OD600 change, %; measured here: OD600 growth;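 optical density of the mix in the first replicate; 0 = DMSO median and -100 = no signal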
Ecoli rRNA inh RFP: further read-out of Ecoli rRNA inh, marked with its call; RFP signal change, %; measured here: RFP humanized mutant strains;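 first replicate; 0 = DMSO median and -100 = no signal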
* hit, by the source's call; i = inactive; ? = inconclusive; / = not tested or not shown.

Sample of the layout:
SMILES	AF4-AF9 inh	ALR H2O2 inh	Beta cell apopt	T cruzi repl	Calb FLC	Ecoli rRNA inh	Ecoli rRNA inh OD600	Ecoli rRNA inh RFP	RanGTP-Impb inh	FGF22 binding
C#CCn1cc(/C=N/Nc2nc3ccccc3[nH]2)c2ccccc21	/	11	55	37	-14	/	/	/	1.6	/
CCN(CC)CCOC(=O)c1ccc(NC(=O)/C=C/c2cccs2)cc1	9.4	10	-8	31	0	-9	0	-3.7	-1.3	i

Main list, from the first entry:
SMILES	AF4-AF9 inh	ALR H2O2 inh	Beta cell apopt	T cruzi repl	Calb FLC	Ecoli rRNA inh	Ecoli rRNA inh OD600	Ecoli rRNA inh RFP	RanGTP-Impb inh	FGF22 binding
C#CCn1cc(/C=N/Nc2nc3ccccc3[nH]2)c2ccccc21	/	11	55	37	-14	/	/	/	1.6	/
CCN(CC)CCOC(=O)c1ccc(NC(=O)/C=C/c2cccs2)cc1	9.4	10	-8	31	0	-9	0	-3.7	-1.3	i
CCOC(=O)c1cc(C(=O)c2cc(Br)ccc2O)coc1=N	-3.9	35	-2	3	29	-12	-16	-0.6	7.2	i
O=c1cc(CSc2ccccc2)nc(-c2ccccc2)[nH]1	-13	-15	-1	-8	12	7	12	9.8	2.9	/
S=C(c1ccccc1)N1CCN(C(=S)c2ccccc2)CC1	/	5	-2	-2	-39	/	/	/	-5.3	/
Cc1c(Cl)cccc1NC(=O)Cn1cnc(S(=O)(=O)N2CCCC2)c1	/	-4	-1	-8	5	/	/	/	-2.8	/
CC(C)CCNC(=O)NC(=O)COC(=O)CNC(=O)C1CCCCC1	-11	-1	-5	-15	0	8	9	-1.6	-0.4	/
O=C(CCCN1C(=O)/C(=C/c2ccccc2OC(F)F)SC1=S)Nc1cccnc1	-2.5	/	-4	/	/	-12	-37	26	/	i
COC(=O)CCC(=O)N1CCCC(CNS(=O)(=O)c2ccc(OC)cc2)C1 (stereo not drawn)	0.7	-1	0	-2	7	8	16	-0.8	7.2	i
CCc1ccccc1NC(=O)C1C2C=CC(O2)C1C(=O)O (stereo not drawn)	-2.4	-1	-2	-14	4	0	6	0.5	-2.1	i
C=CCNCC(=O)NN=C(c1ccccc1)c1ccccc1	/	1	-3	2	-9	/	/	/	-0.6	/
CCCN(Cc1ccccc1)C(=S)Nc1ccc(C(C)=O)cc1	3.7	5	-5	14	13	-13	-11	-0.2	-0.2	i
CCCN1CCC(=O)N(CCOc2ccccc2)CC1	-0.1	-6	-7	5	-8	-2	-12	14	3.5	i
COc1ccc2cc(C3(C)NC(=O)NC3=O)ccc2c1 (stereo not drawn)	-2.5	-9	-4	-2	3	/	/	/	-1.6	/
CCSc1nnc(-c2cc(Br)ccc2N=Cc2c(C)[nH]n(-c3ccccc3)c2=O)c(=O)[nH]1	0.8	11	6	-12	-3	-1	1	-3.8	18*	i
COc1ccccc1OCC(=O)N/N=C1\CCc2ccccc21	/	-6	1	2	0	/	/	/	0.8	/
O=C1NC(O)(c2ccccc2)Oc2ccccc21 (stereo not drawn)	-0.7	14	2	-19	12	-16	-4	-7.6	-2.9	i
CCCC(=O)Nc1ccc(C(N)=O)cc1	0.0	-4	/	-5	-16	15	6	-2.8	2.1	/
O=C(NCc1ccc(F)cc1)c1ccc(CNc2c(N3CCOCC3)c(=O)c2=O)cc1	1.2	/	-1	-1	7	12	12	-0.7	3.1	/
COc1cccc(N2CC(C(=O)Nc3nnc(SCC(=O)NCC4CCCO4)s3)CC2=O)c1 (stereo not drawn)	-5.9	5	-6	-6	1	7	6	0.8	?	i
CCC(C)[C@H](NC(=O)c1cc2cc(Cl)ccc2n1C)C(=O)N1CCC(C(=O)O)CC1 (stereo partly drawn)	2.9	-7	-3	-3	8	-1	-1	-1.7	-1.5	i
O=C(CN1C2=NCCN2c2ccccc21)c1ccc(Br)s1	2.1	2	2	-22	-20	7	4	3.5	-1.9	i
Nn1c(SCC(=O)Nc2ccc(N3CCOCC3)cc2)nnc1-c1ccccc1F	0.3	99*	-7	/	/	19	11	5.5	/	i
CSCC[C@@H](C(=O)NCc1cccs1)N1Cc2ccccc2C1=O	3.7	-1	-3	-2	-5	5	3	-1.0	-3.9	i
C#CC(=O)N(c1cccc(OC)c1)C(C(=O)NC1CCCC1)c1cccs1 (stereo not drawn)	14	9	94*	51	7	-13	8	-5.9	-1.4	i

Part of the list above, reduced to T cruzi repl and AF4-AF9 inh:
SMILES,T cruzi repl,AF4-AF9 inh
CCSc1nnc(-c2cc(Br)ccc2N=Cc2c(C)[nH]n(-c3ccccc3)c2=O)c(=O)[nH]1,-12,0.8
CC(C)CCNC(=O)NC(=O)COC(=O)CNC(=O)C1CCCCC1,-15,-11
CSCC[C@@H](C(=O)NCc1cccs1)N1Cc2ccccc2C1=O,-2,3.7
Nn1c(SCC(=O)Nc2ccc(N3CCOCC3)cc2)nnc1-c1ccccc1F,/,0.3
CCCN1CCC(=O)N(CCOc2ccccc2)CC1,5,-0.1
O=C(CN1C2=NCCN2c2ccccc21)c1ccc(Br)s1,-22,2.1
S=C(c1ccccc1)N1CCN(C(=S)c2ccccc2)CC1,-2,/

A few values from above.
`O=C1NC(O)(c2ccccc2)Oc2ccccc21` (stereo not drawn) in Ecoli rRNA inh has -16
`C#CC(=O)N(c1cccc(OC)c1)C(C(=O)NC1CCCC1)c1cccs1` (stereo not drawn) in AF4-AF9 inh has 14
`O=c1cc(CSc2ccccc2)nc(-c2ccccc2)[nH]1` in Ecoli rRNA inh RFP has 9.8
`S=C(c1ccccc1)N1CCN(C(=S)c2ccccc2)CC1` in T cruzi repl has -2
`C#CCn1cc(/C=N/Nc2nc3ccccc3[nH]2)c2ccccc21` in T cruzi repl has 37

Following part.
SMILES	AF4-AF9 inh	ALR H2O2 inh	Beta cell apopt	T cruzi repl	Calb FLC	Ecoli rRNA inh	Ecoli rRNA inh OD600	Ecoli rRNA inh RFP	RanGTP-Impb inh	FGF22 binding
CC1OC(Oc2ccc3ccc(=O)oc3c2-c2c(O)ccc3cc(Oc4ccc5ccc(=O)oc5c4)c(=O)oc23)C(O)C(O)C1O (stereo not drawn)	1.1	3	8	-6	2	-1	6	5.4	1.8	i
Cc1ccc(NC(=O)CCn2cccc2)cc1F	/	27	-4	-5	1	/	/	/	3.0	/
CCS(=O)(=O)N1CCN(C(=O)COc2ccc(-c3ccccc3)cc2)CC1	/	60	-4	-2	-1	/	/	/	0.4	/
Cc1c(C(=O)N2CCOCC2)sc(NC(=O)c2ccccc2F)c1C#N	-2.9	/	-2	-4	40	-6	-6	2.9	4.6	i
O=C(NCCS(=O)(=O)N1CCN(c2ccccc2)CC1)c1ccc2c(c1)OCO2	-0.3	9	/	0	-11	2	3	-1.5	6.0	i
Cc1ccc(-c2noc(CSc3nnc(-c4ccncc4)n3-c3ccc(F)cc3)n2)cc1	/	-4	-14	10	30	/	/	/	4.3	/
O=C(Cn1cc2c(n1)CCCC2)NCCc1ccccc1	0.7	0	-4	4	-20	-1	-5	1.1	7.0	i
CC1(C)OC(=O)C(C(c2ccccc2)C(C#N)C(N)=O)=C(O)O1 (stereo not drawn)	/	/	-3	-5	4	/	/	/	-2.9	/
COc1ccc(NC2CCCN(C(=O)CCCN3CCCCC3=O)C2)cc1 (stereo not drawn)	-2.4	99*	7	-7	8	8	2	-0.2	-1.4	i
CCOC(=O)N1CCN(C2=Nc3cccc4cccc2c34)CC1	/	-20	0	2	4	/	/	/	-1.0	/
COc1ccc(-c2cn[nH]c2-c2ccc(O)cc2O)cc1OC	3.5	74	-1	-2	-11	-8	0	-0.6	-9.2	i
CC(CCc1ccccc1)NC(=O)C1CCN(C(=O)c2sccc2-n2cccc2)CC1 (stereo not drawn)	-3.8	-5	7	-17	1	-7	-24	0.2	3.0	i
COc1ccccc1CN1CCNC(=O)C1CC(=O)NCc1c(C)n[nH]c1C (stereo not drawn)	-1.1	-4	-3	-5	-7	25	10	2.9	-1.5	i
COC(=O)c1nc2n(n1)C(c1ccc(OC)c(OC)c1OC)C1=C(CCCC1=O)N2 (stereo not drawn)	/	-2	-1	0	-2	12	5	-2.8	3.1	/
CC(C)(C)c1ccc(NC(=O)c2cc[n+]([O-])cc2)cc1	2.5	/	-7	-15	4	2	-12	-12	2.1	i
O=C(O)c1c[nH]c2ccc(S(=O)(=O)N3CCOCC3)cc12	/	-31	-2	-10	-3	/	/	/	5.4	/
CCC[C@@H]1C[C@@H](C(=O)N[C@@H](C2O[C@H](SC)[C@H](O)[C@@H](O)[C@H]2O)[C@H](C)Cl)N(C)C1 (stereo partly drawn)	/	-1	4	-13	/	/	/	/	-0.7	/
O=C(CCN1C(=O)C2CCCCC2C1=O)N1CCN(S(=O)(=O)c2c(F)cccc2F)CC1 (stereo not drawn)	-3.3	-4	-3	-1	7	2	4	-0.9	-1.5	i
CCc1ccc([C@@H]2C[C@H]3CN(Cc4ccccc4OC)C(=O)[C@]34CCCN24)cc1	-1.0	-17	-4	39	-29	/	/	/	4.4	i
Cc1ccc(Cl)c(OC(=O)c2nn(C(C)C)c(=O)c3ccccc23)c1	3.4	3	-2	-3	7	13	-7	-5.1	-1.3	i
O=C(COC(=O)c1ccc(-c2ccc([N+](=O)[O-])cc2)o1)NC(=O)NC1CCCCC1	0.5	-18	-4	7	-2	-33*	-20*	2.9*	-4.8	i
O=C(NCc1ccco1)C(=O)NCC1OCCN1S(=O)(=O)c1ccc(Cl)cc1 (stereo not drawn)	7.1	3	-5	-16	-2	1	8	-4.4	4.1	i
Cc1[nH]n(-c2ccc([N+](=O)[O-])cc2)c(=O)c1C=NCCc1ccc(S(N)(=O)=O)cc1	-7.2	-3	28	4	-11	7	5	-0.8	-11	i
COc1ccccc1/C=N/NC(=O)c1ccc(C)nc1	-0.8	-15	-2	-8	-10	0	2	-1.6	-3.3	i
CC(=O)Nc1c(-c2ccccc2)nc2ncccn12	48*	/	-8	-24	-6	12	15	-1.2	4.1	i
N#CCCN(Cc1cccnc1)C(=O)Nc1ccc(Cl)c(Cl)c1	/	-3	-9	37	25	/	/	/	0.6	/
CCOC(=O)c1c(NC(=O)c2ccco2)n(C2CCCCC2)c2nc3ccccc3nc12	/	21	-2	?	21	/	/	/	79*	/
CCOC(=O)C(CC)(CC)C(=O)/C=C/c1ccc(Br)cc1	/	14	22	30	13	/	/	/	-0.9	/
Cc1cc(C)cc(OCC(=O)OCc2cc([N+](=O)[O-])cc3c2OCOC3)c1	2.0	-1	2	/	/	2	7	3.0	/	i

An excerpt, so the mix of outcomes need not match the whole.
